# Bioassay records (PubChem BioAssay)
# MLL AF4-AF9 inh: inhibitors of human MLL-AF4/AF9 interaction. P42568. AlphaScreen, biotin-AF4 peptide binding to FLAG-AF9. inhibition, % at 10 µM. 350,000 compounds, 0.47% hits;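 active = every replicate reaching a set inhibition limit, whatever the replicate mean, cut at about 25% in these data; inconclusive = mean inhibition reaches that limit but some replicates miss it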;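 note: 0% = plate neutral control median and 100% = total signal loss; the record names both 10 and 1 µM as test concentration; the first replicate is given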
# E coli growth: blocks Escherichia coli growth | AID 1053175 | OD600 absorbance (no concentration beside the values) | OD600, 23 h; hits give low values | 330,000 compounds, 0.21% hits;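 active = OD600 absorbance below the run mean of sample wells minus 3.6 SD, in any replicate, cut at about 0.56 in these data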;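 note: stock transfer was 300 nL into about 60 µL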
# Vif TR-FRET: HIV-1 Vif–A3G interaction blockers – biochemical, TR-FRET, GST-Vif 1-94, biotin-A3G peptide, dose response retest, primary screen (AID 1117319) | 260,000 compounds, 0.57% hits | TR-FRET GST-Vif / biotin-A3G peptide binding; higher % means a stronger effect; test concentration not given here; strong numbers were not always called active | one-dose inhibition, %; IC50 in µM for titrated hits;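 active = above the screen mean plus three standard deviations and confirmed in dose response; inconclusive = results disagree or hit not tested in dose response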;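 note: Vif residues 1-94 fused to GST binding biotinylated APOBEC3G peptide 110-148; 0% = full assay without inhibitor and 100% = GST in place of GST-Vif; retest series ran down from 100 µM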
# rRNA inh HTS: inhibits bacterial ribosomal RNA function over humanized ribosomes; E. coli WT GFP vs humanized-ribosome RFP mutants, fluorescence, 24 h; hits give low values; DMSO median 0, no signal -100; GFP signal change (wild-type ribosome), % (concentration not given with the values); 350,000 compounds, 1.6% hits;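 active = significant combined selectivity score with lowered wild-type GFP, culture density cut under 30%, mutant RFP and density less affected; inactive = any of these conditions unmet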; note: one replicate is shown; some compounds called inactive have numbers as strong as hits
# ALR inh: inhibitors of human sulfhydryl oxidase ALR. P55789. AID 485317. inhibition, % (concentration not given with the values). 290,000 compounds, 3.8% hits. purified ALR, DTT oxidation, H2O2 HRP-luminol luminescence;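 active = mean and each replicate at 75% or more; inconclusive = only one of the two met; inactive = neither met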;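 note: stock transfer was 7.5 nL into about 7.5 µL; 0% = neutral wells and 100% = wells with inactivated enzyme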
# Target sequence (P55789 whole entry, looked up): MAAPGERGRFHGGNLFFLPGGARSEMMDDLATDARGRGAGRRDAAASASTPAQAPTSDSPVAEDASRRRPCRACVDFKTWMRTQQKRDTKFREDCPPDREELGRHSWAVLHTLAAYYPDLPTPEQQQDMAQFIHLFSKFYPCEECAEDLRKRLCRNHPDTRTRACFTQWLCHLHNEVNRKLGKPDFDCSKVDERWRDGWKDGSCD
# HNF4A DNA FP: change in binding of human HNF4 alpha to DNA | P41235 | HNF4a-FITC DNA binding, fluorescence polarization, 1 h | activity change, % at 10 µM | 360,000 compounds, 0.3% hits; in the data active = activity change above about 30%, passing the limit was not always enough;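 note: controls were the assay level and a saturating level of protein; the project sought stronger binding though the title names inhibitors; some compounds called inactive have numbers as strong as hits; positive values seem to mean higher polarization but the record does not say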
# Target sequence (P41235 whole entry, looked up): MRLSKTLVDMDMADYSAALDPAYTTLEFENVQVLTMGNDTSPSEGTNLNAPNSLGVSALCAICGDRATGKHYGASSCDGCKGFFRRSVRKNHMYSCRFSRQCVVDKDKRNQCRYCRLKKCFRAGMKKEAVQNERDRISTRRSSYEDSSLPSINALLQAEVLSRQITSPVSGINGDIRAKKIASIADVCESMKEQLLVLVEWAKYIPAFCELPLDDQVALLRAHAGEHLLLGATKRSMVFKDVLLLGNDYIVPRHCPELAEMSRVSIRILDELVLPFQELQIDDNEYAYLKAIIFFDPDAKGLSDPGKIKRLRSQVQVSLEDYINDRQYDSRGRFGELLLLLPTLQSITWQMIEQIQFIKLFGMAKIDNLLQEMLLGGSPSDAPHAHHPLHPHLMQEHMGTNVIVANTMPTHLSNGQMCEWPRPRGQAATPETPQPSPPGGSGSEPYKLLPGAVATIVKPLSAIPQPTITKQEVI
# FGF22 binding: shifts melting point of recombinant human FGF22. Q9HCT0. recombinant FGF22 thermal shift, SYPRO orange fluorescence; percent of sucrose octasulfate shift, DMSO zero. calls only at 9.99 µM. 340,000 compounds, 1.5% hits. AID 651658;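 active = melting point raised past a set limit in the mean and every replicate; inconclusive = no clear call; three in four hits are not shown here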
# Target sequence (Q9HCT0 whole entry, looked up): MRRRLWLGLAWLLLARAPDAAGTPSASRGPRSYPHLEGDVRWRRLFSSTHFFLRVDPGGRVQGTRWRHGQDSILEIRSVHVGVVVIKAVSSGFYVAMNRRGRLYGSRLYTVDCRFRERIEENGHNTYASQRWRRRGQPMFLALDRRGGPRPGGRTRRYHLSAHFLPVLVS
# rRNA inh HTS OD600: also measured in rRNA inh HTS; calls as there; OD600 change, %; measured here: OD600 growth;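 optical density of the mix in the first replicate; 0 = DMSO median and -100 = no signal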
# rRNA inh HTS RFP: also measured in rRNA inh HTS; calls as there; RFP signal change, %; measured here: RFP humanized mutant strains;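 first replicate; 0 = DMSO median and -100 = no signal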
# * hit, by the source's call; i = inactive; ? = inconclusive; . = not tested or not shown. These rows are one share of the data, so the mix of outcomes need not match the whole.
SMILES,MLL AF4-AF9 inh,E coli growth,Vif TR-FRET,rRNA inh HTS,rRNA inh HTS OD600,rRNA inh HTS RFP,ALR inh,HNF4A DNA FP,FGF22 binding
COc1ccc(-n2nc(C(=O)NCC(=O)N3CCCC(C)C3)c3ccccc3c2=O)cc1 (centres undefined),1.1,0.678,.,-7.0,-6.1,-1.1,-1.1,2.8,i
C[C@H](CO)N1C[C@H](C)[C@H](CN(C)Cc2ccncc2)Oc2ccc(NC(=O)CCCN(C)C)cc2C1=O,-1.8,.,.,-2.5,1.9,-0.4,.,.,i
Cc1cc(F)cc(-c2cc(C(=O)NCC3CCCCC3)[nH]n2)c1,-0.2,.,.,5.4,3.3,3.2,.,-0.6,i
CCN(CC)P(=O)(Nc1ccc([N+](=O)[O-])cc1)c1c(C)nn(CCC#N)c1NC(=O)c1ccc(Cl)cc1 (centres undefined),2.6,0.671,.,0.4,2.0,-2.7,.,-1.7,i
N#C/C(=C\c1ccc(O)cc1)C(=O)NCc1cccc(Cl)c1,0.6,0.672,-2.3%,-10.5,-11.6,4.2,-12.4,2.1,i
COc1cc([N+](=O)[O-])ccc1NC(=O)NCc1cccnc1,-7.5,0.676,-2.2%,2.7,1.8,5.4,-12.7,0.8,i
COc1ccc(/C=N/NC(=O)c2ccccc2NC(=O)c2ccco2)c(OC)c1,3.1,.,-5.4%,23.4,5.7,1.7,-3.9,-2.7,i
Cc1nn(C(C)C(=O)NC2CCCCCC2)c(=O)c2nn(-c3ccccc3)c(C)c12 (centres undefined),-3.6,0.709,.,2.5,-1.0,-1.3,-2.8,2.7,i
CCN(CC)Cc1oc(-c2ccccc2)cc1C(=O)O,-6.1,0.719,26.4%,10.1,7.0,3.4,.,-0.3,.
Clc1ccc2nc(CN3CCCCC3)cn2c1,?,0.676,8.0%,7.0,6.5,-2.7,-0.6,1.5,i
CC(C)C[C@H]1CNC(=O)C(=O)N1CC1CCN(CCc2ccc(-c3ccccc3)cc2)CC1,-0.2,.,6.3%,3.4,5.3,6.6,.,-0.8,i
CC(C(=O)Nc1ccc(F)c(F)c1)N1CCN(C)CC1 (centres undefined),-5.2,0.676,-6.6%,8.1,17.5,4.3,-18.0,0.5,i
COC(=O)c1sccc1NC(=O)COc1cccc(C)c1,-14.2,0.699,-3.5%,-4.9,9.2,-0.3,-17.1,1.6,i
CCCNC(=O)N(C)C[C@H]1Oc2ncc(C3=CCCCC3)cc2C(=O)N([C@H](C)CO)C[C@H]1C,-17.7,.,.,-0.1,-2.8,-1.9,.,.,i
CCCNC(=O)N1CC2(CCN(CC3CCCCC3)CC2)c2c([nH]c3cc(OC)ccc23)[C@H]1CO,2.7,.,.,6.9,2.0,-0.1,.,.,i
C=CCSc1nnc(-c2c[nH]c3ccccc23)n1CCOC,6.1,0.67,-1.6%,-1.6,12.2,-2.6,-9.2,-5.1,i
C[C@H](CO)N1C[C@H](C)[C@H](CN(C)S(=O)(=O)c2ccc(F)cc2)OCc2ccccc2-c2ccccc2C1=O,-1.4,.,.,0.2,-9.0,2.0,.,.,i
Cc1cccc(NC(=O)c2cnc3n(c2=O)CCS3)c1,.,0.714,-6.5%,.,.,.,-3.8,-0.6,.
COc1ccc(COC[C@H](C)[C@H](O)[C@@H](C)[C@H]2OC(=O)[C@@H]2C)cc1,-3.9,.,.,9.3,5.7,4.2,8.1,-0.5,.
CCOc1ccccc1CN1CCN(Cc2cn(C)nc2-c2ccccc2)CC1CCO (centres undefined),0.3,.,-3.3%,11.9,6.7,3.2,.,4.2,i
CN(C)CCCn1c2c(c(SCC(=O)Nc3ccc4c(c3)OCO4)nc1=O)CCC2,-23.5,0.634,3.3%,12.8,13.2,-0.6,98.4*,-2.9,i
CCN(CC(=O)Nc1ccc(NC(C)=O)cc1)c1ccc(C(F)(F)F)cn1,.,0.67,-5.2%,.,.,.,0.8,-0.8,.
N#Cc1nc(-c2cccs2)oc1NCc1ccc2c(c1)OCO2,.,0.673,-1.6%,.,.,.,3.2,-2.7,.
O=C(O)c1cccc(S(=O)(=O)N2CCN(c3ccccn3)CC2)c1,1.0,0.728,.,-3.5,-5.9,-4.1,-3.2,-2.0,i
CCC(=O)N1CCCC1(C)C(=O)Nc1cc(OC)ccc1OC (centres undefined),-0.3,.,.,11.9,16.6,4.0,.,-0.9,i
O=C(Nc1ccc(Oc2ccc(C(=O)O)c(C(=O)O)c2)cc1)c1cccs1,-0.1,0.7,7.2%,10.2,4.0,-5.4,.,-1.6,i
CC(C)CNS(=O)(=O)c1ccc(CCC(=O)N2CCN(c3ccccc3)CC2)cc1,-0.9,0.679,.,-13.9,-22.5,-2.5,8.3,-2.4,i
COc1ccccc1-c1nn(-c2ccccc2)cc1C(=O)NC1CC1,1.7,0.655,.,-3.6,3.8,-0.6,4.5,2.2,i
CCOC(=O)C1C(=O)NC(N2CCN(Cc3ccccc3)CC2)=NC1c1ccccc1 (centres undefined),.,0.732,-0.2%,.,.,.,-31.8,6.7,.
O=C(c1ccc(N2CCCC2=O)cc1)N1CCCCCC1,.,0.679,7.9%,.,.,.,-1.3,-0.9,.

# Retrieved by compound from the entries so far, two records:
SMILES,MLL AF4-AF9 inh,E coli growth,Vif TR-FRET,rRNA inh HTS,rRNA inh HTS OD600,rRNA inh HTS RFP,ALR inh,HNF4A DNA FP,FGF22 binding
CN(C)CCCn1c2c(c(SCC(=O)Nc3ccc4c(c3)OCO4)nc1=O)CCC2,-23.5,0.634,3.3%,12.8,13.2,-0.6,98.4*,-2.9,i
COc1cc([N+](=O)[O-])ccc1NC(=O)NCc1cccnc1,-7.5,0.676,-2.2%,2.7,1.8,5.4,-12.7,0.8,i

# (cont.)
SMILES,MLL AF4-AF9 inh,E coli growth,Vif TR-FRET,rRNA inh HTS,rRNA inh HTS OD600,rRNA inh HTS RFP,ALR inh,HNF4A DNA FP,FGF22 binding
COc1ccc(C(=O)N(Cc2nc(-c3ccc(C)cc3)no2)C2CCCCC2)cc1OC,.,0.696,19.8%,.,.,.,-2.5,-1.8,.
CC(=O)Oc1ccc(C(=O)[C@H]2[C@H]3C(=O)N(c4ccc5ccccc5c4)C(=O)[C@H]3[C@@H]3C=CC=NN32)cc1,5.9,.,4.4%,-7.5,-6.5,8.4,0.9,13.9,i
CC(C)CNc1nc(N)c([N+](=O)[O-])c(NC2CCCCC2)n1,-0.5,0.677,2.4%,7.8,15.7,5.5,-24.8,0.4,i
CCOC(=O)Cn1nc(C)c(NC(=O)COc2ccccc2[N+](=O)[O-])c1C,1.1,0.712,0.9%,8.1,-0.7,-1.0,.,0.0,i
O=C(O)C[C@@H]1C[C@H]2c3cc(NC(=O)C4CCC4)ccc3O[C@H]2[C@H](CO)O1,-2.2,.,.,-1.2,-1.5,-1.3,.,.,i
Nc1nc(SCC(=O)Nc2ccc(Oc3ccccc3)cc2)n[nH]1,.,0.641,27.8%,.,.,.,-2.0,-0.4,.
NS(=O)(=O)c1ccc(N=Nc2c(-c3ccccc3)[nH]n(-c3nc(-c4ccccc4)cs3)c2=O)cc1,.,0.728,14.4%,.,.,.,0.0,1.7,.
O=C(NCCCN1CCCC1=O)C1CCN(S(=O)(=O)c2ccc(F)cc2)CC1,-0.2,0.694,-0.8%,0.5,-0.5,-1.3,-0.2,-1.5,i
COc1ccccc1CNC(=O)C[C@H]1CC[C@H]2[C@@H](COC[C@H](O)CN2Cc2ccccc2)O1,-0.5,.,.,-2.5,-3.3,-0.9,.,.,i
CCCc1nc2oc3c(=O)[nH]cnc3c2c2c1COC(C)(C)C2,3.7,0.723,-6.4%,-2.0,-11.2,0.7,-0.3,-0.2,i
COC1=CC(=Cc2c(N)n3nc(CC(=O)N4CCOCC4)sc3nc2=O)C=C(OC)C1=O,-0.2,.,22.0%,14.7,14.3,0.7,51.1,62.4*,i
COc1ccc2sc(-c3ccccc3OC)c(C#CCCO)c2c1,-0.8,0.643,.,-10.3,-20.1,-11.4,-0.1,5.2,i
CCOC(=O)Cc1ccc(NCc2ccc(Cl)cc2)cc1,1.7,0.688,?,9.0,9.0,-0.9,19.0,2.0,i
COCC(=O)N1CCCCN2[C@H](CO)[C@H](c3ccc(-c4ccccc4)cc3)[C@H]2C1,-1.7,.,.,2.1,1.7,-3.1,.,.,i
CCOC(=O)C1CCN(c2cc(=O)n(C3CCCCC3)c(=O)[nH]2)CC1,.,0.729,14.9%,.,.,.,.,39.9*,.
O=C(NCc1ccc(OC(F)(F)F)cc1)C1CCC(=O)N(C2CC2)C1 (centres undefined),-16.8,0.62,.,3.9,-3.2,3.3,.,1.3,i
COc1ccccc1N(C(=O)c1snc(C(N)=O)c1N)C(C(=O)NCc1ccccc1)c1ccc(O)cc1 (centres undefined),-8.5,0.709,.,-11.5,-35.3,2.3,.,0.9,i
COc1cc(C(=O)NCC(=O)N/N=C(\C)Cc2ccccc2)cc(OC)c1OC,-5.5,.,.,3.3,16.8,0.2,8.6,0.1,i
C[C@@H]1CN([C@@H](C)CO)C(=O)c2cc(NS(C)(=O)=O)ccc2O[C@@H](C)CCCCO[C@@H]1CN(C)C(=O)Nc1ccc(C(F)(F)F)cc1,-16.8,.,.,-3.8,-10.7,-0.1,.,.,i
O=C(NC1CCCCCC1)C1c2ccccc2C(=O)N1CCCN1CCOCC1 (centres undefined),.,0.712,-1.4%,.,.,.,-12.3,0.9,.
Cc1ccc(OC(C)C(=O)Nc2ccc(Cl)cn2)c([N+](=O)[O-])n1 (centres undefined),-1.3,0.681,.,14.4,3.5,3.1,-18.1,0.7,i
Cc1ccc(NC(=O)C2CC(=O)N(c3ccc4c(c3)OCCO4)C2)cc1S(=O)(=O)N1CCCCCC1 (centres undefined),-20.1,0.691,4.9%,-7.4,-20.2,5.6,-0.3,0.6,i
O=C(Nc1ccn(Cc2ccccc2F)n1)c1ccc(COc2ccc(Br)cc2)cc1,.,0.674,1.9%,.,.,.,-12.2,-3.4,.
c1ccc2sc(NN=C3CCCCCC3)nc2c1,7.5,0.697,3.4%,-62.5,-75.8,-20.8,4.2,-5.7,i
CCS(=O)(=O)c1ccc2oc(SCC(=O)NC3CCCC(C)C3C)nc2c1 (centres undefined),.,0.743,1.4%,.,.,.,0.8,1.7,.
Cc1cccc(-c2c3c(=O)n(C)c(=O)n(C)c3cn2-c2ccccc2O)c1,.,0.693,8.9%,.,.,.,0.0,-1.1,.
Cn1c(C(=O)O)ccc1S(=O)(=O)N1CCCCCC1,.,0.663,-6.1%,11.4,-8.2,-2.1,-6.0,-1.6,i
CN(C)CCCNC(=O)c1cc(C(=O)c2ccccc2)c[nH]1,1.2,0.683,3.2%,3.8,6.3,0.5,.,1.2,i
CCCCC(CC)CNS(=O)(=O)c1ccc2c(c1)CCN2C(=O)CCC(=O)O (centres undefined),.,0.713,?,.,.,.,.,1.9,.
Cn1c(=O)c(C(=O)NCC2CCCO2)c(O)c2ccccc21 (centres undefined),0.1,0.69,-0.7%,-10.1,-6.0,1.0,-0.8,-1.0,i
CN(C)CCOCCOc1ccc(Cl)cc1C(C)(C)C,0.3,0.695,4.5%,-26.4,-27.0,-12.3,-10.5,0.7,i
CN(C)S(=O)(=O)c1ccc(C(=O)Nc2nnc(-c3cccs3)o2)cc1,-2.8,0.683,27.3%,-32.5,-57.6,-2.0,6.1,-3.5,i
C[C@H](CO)N1C[C@H](C)[C@@H](CN(C)Cc2ccccc2)Oc2ccc(NC(=O)NC3CCCCC3)cc2C1=O,1.3,.,.,-0.1,-1.4,1.3,.,.,i
Cn1c(SCC(N)=O)nnc1C1CCN(C(=O)NCc2ccccc2)CC1,.,0.697,-2.4%,.,.,.,-1.6,3.4,.
CCC(Oc1ccccc1)C(=O)Nc1nc2c(s1)C(=O)CC(C)(C)C2 (centres undefined),.,0.692,9.7%,.,.,.,.,0.6,.
